Screening data: PubChem, National Center for Advancing Translational Sciences (NCATS)
Sfp inh = Sfp phosphopantetheinyl transferase inhibition; Q9F4F7; Biochemical Sfp PPTase activity, qHTS; Potency, µM, inactives show max response, negative = inhibition, usual class: inhibitors; 310,000 tested, 3.5% active; AID 1490; active means well fitted inhibition curve with a large enough effect; inconclusive means small, poorly fitted or top-dose-only effect, or another doubt; inactive means no such curve, though single readings can be large or run the other way;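 further: the enzyme is Sfp with the accession as filed and its product quenches rhodamine fluorescence; potency means the concentration at half of the fitted maximal effect; 0% = enzyme reaction without inhibitor and -100% = no enzyme wells; top concentration of the series not given in the record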
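Compounds were incubated with enzyme (final 15 nM) for 15 min at room temperature before substrate addition started the reaction. Fluorescence at 525 nm excitation, 598 nm emission was recorded immediately and after 30 minutes.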
CtBP-E1A inh = inhibitors of CtBP/E1A interaction | 340,000 tested, 0.49% active | AlphaScreen GST-E1A/His-CtBP binding, 1536-well; active compounds read low; control for the full effect not named in the record | activity change, % (test concentration not listed); in the data active means activity change below about -65%; inconclusive means about -30% to -65%; inactive means above about -30%; further: on the % scale 0 is the no-effect control and ±100 the full control effect
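AlphaScreen with 125 nM GST-E1A and 125 nM His-CtBP (5X stocks) in Tris pH 8.0, 300 mM NaCl, BSA, Tween 20, TCEP. Compounds preincubated 2 h at 37 deg C, then glutathione donor/nickel acceptor beads added for 1 h at 37 deg C in dark.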
D2 potentiator = human D2 receptor positive allosteric modulation. P14416. DiscoveRx D2 beta-arrestin cells, luminescence, 90 min; 100% = 57 uM dopamine signal. potentiation, % (no concentration beside the values). 360,000 tested, 0.23% active. AID 624464; active = potentiation of 50% or more; inconclusive = 30% to 50%; inactive = 30% or less;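 further: compound concentration not given in the record; tested on top of an EC20 dose of dopamine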
Target sequence (P14416 whole entry, looked up): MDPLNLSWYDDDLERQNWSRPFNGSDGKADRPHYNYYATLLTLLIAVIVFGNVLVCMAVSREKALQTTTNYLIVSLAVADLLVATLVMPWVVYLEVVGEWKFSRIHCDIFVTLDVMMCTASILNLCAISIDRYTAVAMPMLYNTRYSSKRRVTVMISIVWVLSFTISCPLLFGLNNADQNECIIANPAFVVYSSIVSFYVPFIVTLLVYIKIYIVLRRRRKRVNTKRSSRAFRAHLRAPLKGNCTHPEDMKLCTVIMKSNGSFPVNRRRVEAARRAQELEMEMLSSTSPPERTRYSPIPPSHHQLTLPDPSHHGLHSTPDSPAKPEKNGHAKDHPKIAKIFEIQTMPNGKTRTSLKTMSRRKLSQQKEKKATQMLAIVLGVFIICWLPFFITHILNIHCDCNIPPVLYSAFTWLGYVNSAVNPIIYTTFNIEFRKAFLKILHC
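PathHunter beta-arrestin assay in DiscoveRx D2 cells. Compounds were added with an EC20 of dopamine (50 nM final) for 90 min at 37 deg C. Luminescence was read 1 h after detection reagent, with 57 uM dopamine as the EC100 control.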
PINK1 modulator = modulators of PINK1 expression. PINK1 immunofluorescence, high-content cytometry, 24 h. Potency, µM (top dose mostly 76.6 µM), for inactives: at the highest dose activation (PINK1 increase), most hits filed as activators. 410,000 tested, 0.2% active. AID 624263; active = well fitted activation curve with a large enough effect; inconclusive = small, poorly fitted or top-dose-only effect; inactive = flat fitted curve, though single readings scatter; cell line not stated here;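 further: potency means the concentration at half of the fitted maximal effect; % of control where 0% means no effect; nearly all actives have a fitted effect of over 65% in size; a mitochondrial uncoupler was the plate control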
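Readout is PINK1 immunofluorescence, quantified alongside mitochondrial, cell and nuclear markers by laser-scanning microplate cytometry. Cells from a stable line were exposed to compound titrations (5 concentrations) for 24 hours, with CCCP controls.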
D2 ag = activates the human D2 dopamine receptor. 360,000 tested, 0.084% active. DiscoveRx PathHunter D2 beta-arrestin, luminescence, 90 min; 100% = 57 uM dopamine signal. AID 624465. activation, % (test concentration not listed); in the data active = activation above about 40%; inconclusive = about 15% to 40%; inactive = below about 15%; further: compound concentration not given in the record; the text of the record calls up to 30% inactive
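DiscoveRx PathHunter D2 beta-arrestin cells (2,100/well) attached overnight, then compound-stimulated 90 min at 37 C in HBSS/10 mM HEPES/0.1% Tween-20 buffer; beta-galactosidase complementation read by luminescence after 1 h at ambient temperature. Dopamine 57 uM final (EC100) as control.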
Six1-Eya2 blk = blocks human Six1 binding to Eya2 | Q15475+O00167 | AlphaScreen GST-Six1/His-Eya2 binding, biochemical; active compounds read low; control for the full effect not named in the record | activity change, % (no concentration beside the values) | 360,000 tested, 0.56% active | AID 651725; in the data active = activity change below about -65%; inconclusive = about -30% to -65%; inactive = above about -30%; further: on the % scale 0 is the no-effect control and ±100 the full control effect
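AlphaScreen with GST-Six1 and His-Eya2 (5X mix: 250 nM and 500 nM), glutathione donor and nickel acceptor beads; buffer 50 mM Tris pH 8.0, 300 mM NaCl, 1 mM TCEP; 1 h at 37 C in the dark.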
TRPV1 potentiator = potentiators of human vanilloid receptor 1 (TRPV1). Q8NER1. TRPV1-expressing cells, Fluo-8 calcium influx, capsaicin EC20 potentiation; host cell line not named in the record; control for the full effect not named in the record. potentiation, % at 8.33 µM. 320,000 tested, 0.02% active; active means potentiation above 80%; inconclusive means 30% to 80%; inactive means below 30%; further: 0% is about no effect
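Fluo-8 calcium influx in TRPV1-expressing cells, kinetic read (ex 480/em 520 nm). Compound added and read 3 min for agonist activity, followed by capsaicin at EC20 final and 2 min further read for enhancement.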
* hit, by the source's call; & = joins results of further samples.

`COc1cc(C(=O)Oc2ccc(/C=N/NC(=O)c3ccncc3)cc2)cc(OC)c1OC` gave Sfp inh -3%, CtBP-E1A inh -4, D2 potentiator 4, PINK1 modulator -0.9%, D2 ag 9.4, Six1-Eya2 blk 0 and TRPV1 potentiator 4.
Screening Cc1ccc(C)c(N2CCN(CCCNC(=O)Cn3c(=O)c4cccn4c4cccnc43)CC2)c1 returned Sfp inh 16%, CtBP-E1A inh 0, D2 potentiator -36, PINK1 modulator -0.8%, D2 ag -0.1, Six1-Eya2 blk -5 and TRPV1 potentiator 3.
CCc1ccn2cc(-c3ccc4c(c3)OCO4)nc2c1 was read as Sfp inh -1%, CtBP-E1A inh -10, D2 potentiator -13, PINK1 modulator 2.7%, D2 ag 5.1, Six1-Eya2 blk -13 and TRPV1 potentiator 7.
`CC1CN(C(=O)COC(=O)c2cc(S(N)(=O)=O)c(Cl)cc2Cl)CC(C)O1` (stereo not given) gave Sfp inh 12%, CtBP-E1A inh 0, D2 potentiator -5, PINK1 modulator 0.7%, D2 ag 1.3, Six1-Eya2 blk 8 and TRPV1 potentiator 8.
For O=C(COC(=O)Cc1n[nH]c(=O)c2ccccc12)NNC(=O)c1ccc(Br)cc1 the results were CtBP-E1A inh -3, D2 potentiator -5, PINK1 modulator 0.4%, D2 ag -3.4 and Six1-Eya2 blk -1.
`Cc1ccccc1NC(=O)CC(=O)Nc1ccccc1C` gave Sfp inh 16%, CtBP-E1A inh 0, D2 potentiator -9, PINK1 modulator 2.7%, D2 ag -2.6, Six1-Eya2 blk 6 and TRPV1 potentiator 17.
For Cc1cc(Br)cc2c1N(C)C(=O)C2(c1ccc(O)cc1)c1ccc(O)cc1 the results were D2 potentiator 0, PINK1 modulator 0.0%, D2 ag 0.0 and Six1-Eya2 blk 3.
For CCc1ccc(N=C2NC(=O)CS2)cc1 the results were Sfp inh 15%, CtBP-E1A inh 5, D2 potentiator -8, PINK1 modulator -1.7%, D2 ag -1.2, Six1-Eya2 blk 2 and TRPV1 potentiator 6.
`CCC1=Nc2cc(C(=O)NCc3ccco3)ccc2Sc2ccccc21` gave Sfp inh -6%, CtBP-E1A inh -14, D2 potentiator -5, PINK1 modulator 7.1%, D2 ag -0.3, Six1-Eya2 blk -11 and TRPV1 potentiator -2.
`CCOC(=O)c1ccc(NC(=O)CNS(=O)(=O)c2ccccc2)cc1` gave Sfp inh -5%, CtBP-E1A inh 13, D2 potentiator -2, PINK1 modulator -1.2%, D2 ag 5.1, Six1-Eya2 blk 5 and TRPV1 potentiator 17.

Reprinted from the part before: two compounds, followed by the next part.
`CCC1=Nc2cc(C(=O)NCc3ccco3)ccc2Sc2ccccc21` gave Sfp inh -6%, CtBP-E1A inh -14, D2 potentiator -5, PINK1 modulator 7.1%, D2 ag -0.3, Six1-Eya2 blk -11 and TRPV1 potentiator -2.
`CCOC(=O)c1ccc(NC(=O)CNS(=O)(=O)c2ccccc2)cc1` gave Sfp inh -5%, CtBP-E1A inh 13, D2 potentiator -2, PINK1 modulator -1.2%, D2 ag 5.1, Six1-Eya2 blk 5 and TRPV1 potentiator 17.
`Cc1ccc(NC(=O)CCOc2ccccc2)cc1` gave Sfp inh 14%, CtBP-E1A inh 0, D2 potentiator 5, PINK1 modulator 2.5%&-1.0%, D2 ag 3.7, Six1-Eya2 blk 4 and TRPV1 potentiator 18.
For COc1ccc(CCNC(=O)CSc2nc(=O)n3cc(C)ccc3n2)cc1OC the results were CtBP-E1A inh 5, D2 potentiator -10, PINK1 modulator 0.8%, D2 ag -1.9, Six1-Eya2 blk 5 and TRPV1 potentiator -9.
`CC(=O)O[C@H]1C[C@@]2(C)[C@@H](C[C@@H](O)[C@H]3[C@@]4(C)CC[C@@H](O)[C@@H](C)[C@@H]4CC[C@@]32C)/C1=C(\CCC=C(C)C)C(=O)O` gave CtBP-E1A inh 3&1, D2 potentiator -3&0, PINK1 modulator 2.0%&1.2%, D2 ag 2.8&-0.8, Six1-Eya2 blk -3&-5 and TRPV1 potentiator -2.
For CC(C)c1cc(C(=O)O)c2cnn(C(C)C)c2n1 the results were Sfp inh 6%, CtBP-E1A inh 3, D2 potentiator 3, PINK1 modulator 0.4%, D2 ag 3.7, Six1-Eya2 blk -1 and TRPV1 potentiator -10.
`CCOc1ccccc1CN1C(=O)C2(OCCO2)c2ccccc21` gave Sfp inh 18%, D2 potentiator inconclusive, PINK1 modulator 0.4%, D2 ag 1.7, Six1-Eya2 blk 3 and TRPV1 potentiator 17.
For CC1(C(=O)NS(=O)(=O)c2ccc(C#N)cc2)CCN1C(=O)C1(c2ccccc2)CC1 (stereo not given) the results were CtBP-E1A inh 4, D2 potentiator -2, PINK1 modulator 1.6%, D2 ag -4.7 and Six1-Eya2 blk 1.
`COc1ccccc1CNc1ccc([N+](=O)[O-])cc1C` gave Sfp inh -8%, CtBP-E1A inh -1, D2 potentiator -8, PINK1 modulator -1.1%, D2 ag -12, Six1-Eya2 blk -12 and TRPV1 potentiator -2.
Screening COc1ccc(S(=O)(=O)N2CCc3ccccc32)cc1C(=O)OCc1nnc(-c2ccccc2)o1 returned Sfp inh 2%, CtBP-E1A inh 1, D2 potentiator -1, PINK1 modulator -0.5%, D2 ag -2.8 and Six1-Eya2 blk 0.
For COCCn1c(CN2CC(C)CC(C)C2)nc2c1c(=O)n(C)c(=O)n2C (stereo not given) the results were Sfp inh -2%, CtBP-E1A inh 5, D2 potentiator -5, PINK1 modulator 1.9%, D2 ag -6.6, Six1-Eya2 blk 8 and TRPV1 potentiator 17.
For O=C(NN1C(=O)NC2(CCCCC2)C1=O)c1ccc(Cl)s1 the results were D2 potentiator 0, PINK1 modulator 1.5%, D2 ag -2.2, Six1-Eya2 blk 6 and TRPV1 potentiator 3.
For CCN(CC)CCCNC(=O)CCc1c(C)n(CC)c2cc(-c3ccccc3OC)nn2c1=O the results were Sfp inh 3%, CtBP-E1A inh -16, D2 potentiator -20, PINK1 modulator 2.8%&1.1%, D2 ag -0.8, Six1-Eya2 blk -16 and TRPV1 potentiator -5.
For COc1ccc(-c2sc3cc(OC)ccc3c2-c2ccc(OCCN3CCCCC3)cc2)cc1 the results were CtBP-E1A inh -24, PINK1 modulator 1.2% and Six1-Eya2 blk inconclusive.
O=C(c1ccc(N2CCCCC2)c([N+](=O)[O-])c1)N(c1ccccn1)c1ccccn1 was read as Sfp inh 6%, CtBP-E1A inh -8, D2 potentiator -2, PINK1 modulator 1.8%, D2 ag 5.2, Six1-Eya2 blk -4 and TRPV1 potentiator 1.
`O=C(CSc1nc2ccccc2c(=O)n1-c1ccccc1)N1CCc2ccccc2C1` gave Sfp inh 5%, CtBP-E1A inh -13, D2 potentiator -7, PINK1 modulator 3.9%, D2 ag -2.4, Six1-Eya2 blk -13 and TRPV1 potentiator -6.
`CCOc1ccc(CC(=O)N2N=C(C)CC2(O)C(F)(F)F)cc1` (stereo not given) gave Sfp inh 27%, CtBP-E1A inh -1, D2 potentiator -8, PINK1 modulator 0.6%, D2 ag -0.4, Six1-Eya2 blk -6 and TRPV1 potentiator -9.
CCOC(=O)[C@]12CCC=C1N(Cc1ccccc1)C(=O)[C@H](CC(=O)NCc1cccc3ccccc13)C2 was read as CtBP-E1A inh 0, PINK1 modulator -0.2% and Six1-Eya2 blk -1.
For CCOc1ccccc1NC(=O)c1cc2ccccc2oc1=O the results were Sfp inh 0%, CtBP-E1A inh -12, D2 potentiator -6, PINK1 modulator 7.4%, D2 ag 0.2, Six1-Eya2 blk 23 and TRPV1 potentiator 7.
For CCOC(=O)N1C2c3ccccc3C(c3ccccc32)N1C(=O)OCC the results were CtBP-E1A inh 3, D2 potentiator -5, PINK1 modulator 2.8%, D2 ag 2.4 and Six1-Eya2 blk 4.
Screening Cc1cccc(C(=O)N(NC(=O)Oc2ccccc2)C(C)(C)C)c1 returned Sfp inh -3%, CtBP-E1A inh 11, D2 potentiator -5, PINK1 modulator -0.2%, D2 ag 2.9, Six1-Eya2 blk 0 and TRPV1 potentiator -5.
Screening Cc1n[nH]c(=O)c2c(NC(=O)CSc3ccccc3F)oc(C)c12 returned CtBP-E1A inh 3, D2 potentiator -12, PINK1 modulator -1.7%, D2 ag -6.4, Six1-Eya2 blk 1 and TRPV1 potentiator -6.
Cc1cc(C)nc(SCc2cc(=O)c(OC(=O)c3ccc(S(=O)(=O)N4CCCC4)cc3)co2)n1 was read as Sfp inh -5%, CtBP-E1A inh -2, D2 potentiator -18, PINK1 modulator 2.2%, D2 ag 2.7, Six1-Eya2 blk 3 and TRPV1 potentiator 1.
For CCCc1nnc(NC(=O)CCC(=O)N2CCCCC2CC)s1 (stereo not given) the results were Sfp inh -3%, CtBP-E1A inh -3, D2 potentiator -6, PINK1 modulator -2.9%, D2 ag -2.1, Six1-Eya2 blk 0 and TRPV1 potentiator -25.
CCCc1c(C(=O)N/N=C/c2ccc(OCc3ccccc3)cc2)nnn1-c1nonc1N was read as CtBP-E1A inh 7, D2 potentiator -6, PINK1 modulator 1.8%, D2 ag -0.9 and Six1-Eya2 blk 5.
For COc1cccc(NC(=O)Nc2cccs2)c1 the results were Sfp inh 11µM*, CtBP-E1A inh -5, D2 potentiator -9, PINK1 modulator -1.6%, D2 ag -1.3, Six1-Eya2 blk -19 and TRPV1 potentiator -2.
For CC(=O)Nc1ccc(C#Cc2ccc(NC(C)=O)cc2)cc1 the results were Sfp inh 21%, CtBP-E1A inh -12, D2 potentiator 1, D2 ag -3.6, Six1-Eya2 blk -5 and TRPV1 potentiator 11.
Screening CCOC(=O)[C@]12CCCC=C1N(Cc1ccc3c(c1)OCO3)C(=O)[C@H](CC(=O)NCc1cccc3ccccc13)C2 returned CtBP-E1A inh -4, PINK1 modulator 1.3% and Six1-Eya2 blk -17.
`Cc1ccc(C(=O)NC(C(=O)Nc2cccc(S(N)(=O)=O)c2)C(C)C)cc1` (stereo not given) gave Sfp inh 19%, CtBP-E1A inh 1, D2 potentiator -8, PINK1 modulator -0.3%, D2 ag -2.4 and Six1-Eya2 blk 13.
Screening S=C(Nc1cccnc1)Nc1ccccc1Br returned Sfp inh 14%, CtBP-E1A inh -7, D2 potentiator -24, PINK1 modulator 1.9%, D2 ag -5.1, Six1-Eya2 blk -9 and TRPV1 potentiator 6.
For COc1ccccc1N1CCN(C(=O)CSc2nnnn2C2CC2)CC1 the results were CtBP-E1A inh 8, D2 potentiator -15, PINK1 modulator 2.8%, D2 ag -1.8, Six1-Eya2 blk 5 and TRPV1 potentiator -9.
Screening COc1ccc(N2CCN(C(CNC(=O)C3CCCCC3)c3cccnc3)CC2)cc1 (stereo not given) returned Sfp inh -1%, CtBP-E1A inh -5, D2 potentiator 0, PINK1 modulator 0.8%, D2 ag 2.3, Six1-Eya2 blk 2 and TRPV1 potentiator -5.
